# Screening data from PubChem.
# Six1-Eya2 inh – qHTS Assay for Inhibitors of the Six1/Eya2 Interaction; AlphaScreen GST-Six1/His-Eya2 binding, biochemical; hits give low values; control for the full effect not named in the record; activity change, % (test concentration not listed); 360,000 tested, 0.56% active; in the data active = activity change below about -65%; inconclusive = about -30% to -65%; inactive = above about -30%; also: % is scaled to controls: 0 for no effect and ±100 for the full control effect; compound concentration not given in the record
#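 GST-Six1 + His-Eya2 (5X stock: 250/500 nM); Tris pH 8.0, 300 mM NaCl, 0.05% BSA, 0.02% Tween 20; GSH donor/Ni acceptor beads; 1 h 37 °C dark; AlphaScreen readout.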
# PINK1 modulator – A Quantitative High throughput Screen to Identify Chemical Modulators of PINK1 Expression; PINK1 immunofluorescence, high-content cytometry, 24 h; Potency, µM (top dose mostly 76.6 µM), for the others: at the highest dose activation (PINK1 increase), hits mostly activators; 410,000 tested, 0.2% active; AID 624263, 2012; active = well fitted activation curve with a large enough effect; inconclusive = small, poorly fitted or top-dose-only effect; inactive = flat fitted curve, though single readings scatter; cell line not stated here;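 also: potency is read from the fitted curve at half-maximal effect; % of control where 0% means no effect; nearly all actives have a fitted effect of over 65% in size; a mitochondrial uncoupler was the plate control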
#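 Decision-based qHTS: stable cells, 24 h exposure to five compound concentrations, CCCP as control. Fixed cells stained for PINK1 plus nuclear, mitochondrial and cell markers, cytometer read.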
# D2 ag – Beta-Arrestin HTS for Positive Allosteric Modulators of the Human D2 Dopamine Receptor: Agonists; D(2) dopamine receptor (Homo sapiens), P14416; DiscoveRx PathHunter D2 beta-arrestin, luminescence, 90 min; 100% = 57 uM dopamine signal; activation, % (test concentration not listed); 360,000 tested, 0.084% active; AID 624465, 2012; in the data active = activation above about 40%; inconclusive = about 15% to 40%; inactive = below about 15%; also: compound concentration not given in the record; the text of the record calls up to 30% inactive
# Target sequence (P14416 whole entry, looked up): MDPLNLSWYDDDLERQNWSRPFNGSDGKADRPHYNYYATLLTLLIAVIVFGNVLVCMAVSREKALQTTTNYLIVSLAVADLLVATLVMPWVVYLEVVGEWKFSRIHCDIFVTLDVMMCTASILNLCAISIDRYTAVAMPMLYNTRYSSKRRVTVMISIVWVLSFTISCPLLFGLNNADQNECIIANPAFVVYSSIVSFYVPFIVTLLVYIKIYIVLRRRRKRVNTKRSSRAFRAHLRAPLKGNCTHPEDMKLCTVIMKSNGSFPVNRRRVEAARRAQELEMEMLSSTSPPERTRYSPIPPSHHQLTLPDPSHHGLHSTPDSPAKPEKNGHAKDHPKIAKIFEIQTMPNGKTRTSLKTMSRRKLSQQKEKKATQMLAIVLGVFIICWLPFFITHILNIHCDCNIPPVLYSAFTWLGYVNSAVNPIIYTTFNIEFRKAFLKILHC
#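 DiscoveRx PathHunter D2 beta-arrestin cells (2,100/well) attached overnight, then compound-stimulated 90 min at 37 C in HBSS/10 mM HEPES/0.1% Tween-20 buffer; beta-galactosidase complementation read by luminescence after 1 h at ambient temperature. Dopamine 57 uM final (EC100) as control.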
# D2 potentiator – Beta-Arrestin HTS for Positive Allosteric Modulators of the Human D2 Dopamine Receptor: Potentiators. 360,000 tested, 0.23% active. potentiation, % (concentration not given with the values). D(2) dopamine receptor (Homo sapiens), P14416. DiscoveRx D2 beta-arrestin cells, luminescence, 90 min; 100% = 57 uM dopamine signal; active = potentiation of 50% or more; inconclusive = 30% to 50%; inactive = 30% or less;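 also: compound concentration not given in the record; tested on top of an EC20 dose of dopamine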
#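 PathHunter D2 cells, attached overnight at 37 deg C, received compound in DMSO plus dopamine at EC20 (50 nM final) for 90 min at 37 deg C. Beta-arrestin recruitment was read as luminescence after 1 h with detection reagent at ambient temperature.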
# TRPML1 blocker – qHTS for Inhibitors of the Human Mucolipin Transient Receptor Potential 1 (TRPML1) | Mucolipin-1 (Homo sapiens), Q9GZU1 | TRPML1-inducible cells, Ca2+ dye fluorescence, FDSS; hits give low values; inhibition of EC80 agonist-evoked calcium signal | activity change, negative = inhibition, % (concentration not given with the values) | 390,000 tested, 0.02% active | AID 624415, 2012; in the data active means activity change below about -50%; inconclusive means about -30% to -50%; inactive means above about -30%;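 also: stimulus is agonist 54-4 at its EC80 concentration; % is scaled to controls: 0 for no effect and ±100 for the full control effect; compound concentration not given in the record; the text of the record puts the active cut at -80%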
# Target sequence (Q9GZU1 whole entry, looked up): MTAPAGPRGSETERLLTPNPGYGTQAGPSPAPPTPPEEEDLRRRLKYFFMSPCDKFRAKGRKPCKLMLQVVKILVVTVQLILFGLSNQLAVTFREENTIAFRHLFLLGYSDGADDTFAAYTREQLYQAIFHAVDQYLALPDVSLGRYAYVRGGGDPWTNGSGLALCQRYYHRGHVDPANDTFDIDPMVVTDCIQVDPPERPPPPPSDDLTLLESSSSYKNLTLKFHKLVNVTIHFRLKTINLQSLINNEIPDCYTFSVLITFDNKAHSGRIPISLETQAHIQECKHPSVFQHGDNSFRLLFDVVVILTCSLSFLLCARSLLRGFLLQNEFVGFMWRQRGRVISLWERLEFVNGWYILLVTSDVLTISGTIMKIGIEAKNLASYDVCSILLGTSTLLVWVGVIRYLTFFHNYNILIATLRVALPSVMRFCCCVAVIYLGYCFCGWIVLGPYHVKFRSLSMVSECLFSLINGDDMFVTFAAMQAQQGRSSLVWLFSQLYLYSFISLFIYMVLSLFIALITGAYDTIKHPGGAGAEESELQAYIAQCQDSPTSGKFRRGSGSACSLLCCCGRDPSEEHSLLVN
#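 TRPML1-DL cells, Tet-induced overnight (~16 h, 37 °C) at 1,500 cells/well, were loaded with Ca8 no-wash dye plus quencher for 45-90 min at room temperature. Compounds were pinned during FDSS kinetic reading; agonist 54-4 at EC80 (4 uM final) then added.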
# TRPML1 agonist – qHTS for Agonists of the Human Mucolipin Transient Receptor Potential 1 (TRPML1); TRPML1-expressing cells, Ca2+ dye fluorescence, FDSS; host cell line not named in the record; reference of the full effect not given here; activation, % (no concentration beside the values); 410,000 tested, 0.12% active; AID 624414, 2012; in the data active = activation above about 50%; inconclusive = about 30% to 50%; inactive = below about 30%; also: 0% is about no effect; the text of the record puts the active cut at 80%
#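 In this qHTS format, compounds were pin-transferred onto Ca8-dye-loaded TRPML1-DL cells induced with Tet overnight, and intracellular Ca2+ fluorescence was recorded kinetically for 110 s after a 10 s baseline. A subsequent 4uM final 54-4 (EC80) addition followed by a second 110 s read served as the antagonist phase.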
# * = called active by the depositor; ? = inconclusive; / = not tested or not shown; [ ] = another dose, or the depositor's remark.
SMILES,Six1-Eya2 inh,PINK1 modulator,D2 ag,D2 potentiator,TRPML1 blocker,TRPML1 agonist
COc1ccc(S(=O)(=O)Nc2cccc(-c3ccc(N4CCCC4)nn3)c2)c(OC)c1,/,2.3%,/,/,0.7,-1.1
COc1ccccc1CCNC(=O)CN1C(=O)NC2(CCCC2)C1=O,2.2,3.2%,-3.8,-4.8,-1.3,-0.1
CNC(=O)/C(=C\c1ccco1)NC(=O)c1ccco1,3.3,0.4%,0.0,3.3,1.5,-1.2
Cn1cc(-c2nnnn2-c2ccccc2)c(=O)c2ccccc21,-3.4,2.8%,-3.5,-17.7,-1.9,0.0
COc1ccc(NC(=O)COC(=O)CC2CC3CCC2C3)c([N+](=O)[O-])c1 (stereo unspecified),?,6.3%,0.3,-4.9,35.2,0.7
CC(C)=CCN1CCN(Cc2cc(F)ccc2-n2nc(C)cc2C)CC1CCO (stereo unspecified),9.9,-0.4%,-3.8,-2.4,-10.1,0.3
O=C(CSc1nc2ncc(Br)cc2[nH]1)c1ccc([N+](=O)[O-])cc1,-10.4,?,9.9,-6.9,-12.9,1.4
O=C(Oc1ccccc1C(=O)N1CCOCC1)c1ccc(F)cc1,0.3,-1.3%,-1.9,-2.0,-0.6,-0.2
COc1ccc(C(=O)NNC(=O)c2cc3ccccc3cc2O)cc1,3.9,1.4%,1.1,-1.6,21.8,1.5
CC1(C(=O)NS(=O)(=O)c2ccc(Cl)cc2)CCN1C(=O)Cc1ccccc1Cl (stereo unspecified),-1.7,0.6%,-4.3,0.0,/,0.4
CCOC(=O)c1[nH]c(C)c(/C(O)=C2\C(=O)C(=O)N(CCN(C)C)C2c2ccncc2)c1C (stereo unspecified),10.1,3.2%,2.1,-1.3,-1.2,0.0
CC/C(=N\NC(=O)c1ccc(Br)cc1)c1ccccc1,3.7,-1.8%,-3.4,-7.4,-19.2,3.4
O=C1CN(C(=O)COC(=O)CCC(=O)c2ccc3c(c2)OCCO3)c2ccccc2N1,5.0,0.6%,0.6,-9.5,-0.7,-1.0
Cc1ccc(CCNC(=O)C2CCC(=O)N2Cc2ccc(F)cc2)cc1 (stereo unspecified),1.2,0.2%,-0.5,-7.7,/,/
Fc1ccccc1CNc1cc(Cl)cc(Cl)c1,20.5,6.2%[38.3 µM],-0.9,-10.2,12.9,2.2
CCn1c(=O)cc(OCC(=O)NCCc2ccc(OC)c(OC)c2)c2ccccc21,-0.2,0.9%,-2.9,0.1,-7.9,0.7
COc1ccc(-c2cn(CCN)c(-c3ccncc3)n2)cc1,1.9,0.5%,-3.9,-15.2,24.3,-0.8
C/C(CC(=O)NC(C)(C)C)=N\NC(=O)COc1ccc(C)cc1Br,-11.5,-0.9%,-2.9,-8.3,-18.9,-0.7
COc1ccc(CNC(=O)c2c3c(nc4ccccc24)C(=O)N(C2CCCCC2)C3)c(OC)c1,/,1.7%,/,/,-21.3,0.1
Cc1cccc(C(=O)N2CCC(=O)N(C(COCc3ccc(Cl)cc3)Cc3ccccc3)CC2)c1 (stereo unspecified),-6.6,28.5%,-1.9,-9.7,31.8,-0.3
C=CCOc1c(Br)cc(/C=N/NC(=O)Cc2ccc(C(F)(F)F)cc2[N+](=O)[O-])cc1OC,5.5,3.9%,-4.7,-5.8,0.6,-0.4
CCc1ccc(-n2nc(C)c3c(C)cc(=O)n(CC(=O)Nc4cc(C)ccc4C)c32)cc1,/,-0.5%,/,/,-15.3,-0.6
O=C(Nc1ncc(Cc2ccccc2)s1)C1CCCO1 (stereo unspecified),-1.3,-0.8%,-1.2,-4.0,-1.1,-0.9
CC(=O)c1cccc(NC(=O)C2=CN3CCS(=O)(=O)N=C3C=C2)c1,4.4,0.7%,-7.4,-0.4,-7.5,0.0
Cc1c(C(=O)OC2CCCC2C)[nH]c2c1C(=O)CCC2 (stereo unspecified),0.0,2.8%,-1.0,1.9,-15.0,1.1
Cc1ccc(C(=O)NCCCN2CCN(CCCNC(=O)c3ccc(C)cc3)CC2)cc1,7.0,-1.6%,-1.1,-15.7,-6.0,0.8
O=C(NCc1ccccc1)C(c1ccco1)N(C(=O)c1ccccn1)c1ccccc1 (stereo unspecified),1.5,1.1%,-6.2,0.1,4.5,-1.0
C/C=C(\C)C(=O)NCCN1C2=NC[C@H](C)N2C[C@@H]1Cc1ccc(OC)cc1,-6.8,0.7%,-7.7,-17.7,-22.2,0.0
O=C(NCc1ccccc1)c1ccc2ccccc2n1,6.9,-0.8%,0.9,-0.2,-2.2,-0.8
Cc1ccc(NC(=O)CN2C(=O)C(=O)N(C3CCCC3)C2=O)cc1Cl,4.5,-0.2%,2.2,-2.5,3.8,1.4
Cc1cc2nc3c(=O)n(CCc4ccccc4)c(=O)[nH]c3nc2cc1N,-28.9,17.1%,7.9,17.7,-27.2,114.0*
CCOc1ccc(NC(=O)c2cnn3c2NC(c2cccc(OC)c2)=CC3c2ccccc2)cc1 (stereo unspecified),/,5.7%,/,/,12.3,-0.7
CCn1c(C(C)NC(=O)c2ccc(C)cc2)n[nH]c1=S (stereo unspecified),6.1,0.4%,-2.8,-20.2,40.2,-0.3
COc1ccc(NC(=O)C2CCCN(S(=O)(=O)c3ccc4c(c3)CCCC(=O)N4)C2)c(OC)c1 (stereo unspecified),/,-1.1%,/,/,3.9,3.4
CN(C(=O)COC(=O)c1ccc(F)c(S(=O)(=O)N2CCOCC2)c1)C1CCS(=O)(=O)C1 (stereo unspecified),2.0,0.8%,-4.9,8.4,-1.6,0.3
Cc1cc2cc(CNC(=O)NC3CCCCC3)ccc2[nH]1,-6.7,?,-1.3,-0.2,19.3,-0.8
Cc1cccc(NC(=S)N=Nc2c(O)n(CN3CCOCC3)c3ccccc23)c1C,-8.8,11.8%,-1.4,-2.3,39.7,1.9
CN(CCNS(=O)(=O)c1ccc2c(c1)oc(=O)n2C)Cc1ccccc1,0.2,0.3%,-3.9,-6.7,-16.1,0.4
CCOc1ncccc1C(=O)NNC(=O)c1csc(N2CCOCC2)n1,0.1,-1.1%,-4.6,-36.5,-12.4,0.6
COc1cccc(C2C3=C(N=c4s/c(=C\c5ccc(OCC(=O)O)cc5)c(=O)n42)c2ccccc2CC3)c1 (stereo unspecified),2.1,2.0%,-6.1,2.0,16.8,1.0
CCOC(=O)CC(=O)CSc1nccc(-c2cccnc2)n1,8.6,-0.2%,-1.9,-2.0,-9.6,1.7
CCOC(=O)N1CCN(S(=O)(=O)CCNC(=O)c2cccc(OC)c2)CC1,13.4,-0.7%,-0.3,-3.7,2.3,-0.3
Cc1cc(C)n2nc(C(=O)N3CCCC(Nc4ccc(F)c(F)c4)C3)cc2n1 (stereo unspecified),3.8,1.5%,-1.1,1.5,-16.3,0.2
O=C(NNc1nc2c(F)cc(F)cc2s1)c1ccccc1,1.5,1.4%,2.9,-13.8,-1.7,-0.2
Cc1ccc(NC(=O)C(=S)NCc2ccco2)cc1,-6.3,6.8%,-1.9,0.8,61.1,5.9
CCOc1ccc(C2CC(=O)NC(NC(=O)c3ccc(C)cc3)=N2)cc1 (stereo unspecified),/,27.5%,/,/,18.3,3.0
O=C(Nc1nc2ccccc2c(=O)s1)c1ccc(F)cc1Cl,7.5,0.6%,4.4,-12.9,8.6,1.0
N#Cc1ccc(NS(=O)(=O)c2ccc(-c3cnc(C4CC4)o3)cc2)cc1,/,4.7%,/,/,-10.1,-0.8
COc1ccc(CN2CC(C(=O)NCc3cccc(OC)c3)CC2=O)cc1 (stereo unspecified),-2.4,0.7%,-0.4,-1.0,-11.4,-0.9
CCCCN1C(=O)C(=Nc2cccc3cnccc23)c2ccccc21,0.0,4.9%,-8.8,-43.8,24.4,-0.5
N=c1oc2ccc([N+](=O)[O-])cc2cc1C(=O)NCc1ccccc1,0.0,0.9%,-6.2,-28.6,-7.6,-0.6
Cc1ccc(-c2nnc(SCC(=O)Nc3sc(C)c(C)c3C#N)n2C)cc1,7.4,3.9%,-2.3,-3.3,-14.9,0.2
NC(=O)N/N=C/c1cccc(OCc2ccc(F)cc2)c1,-1.0,2.6%,-1.0,-8.0,-2.0,2.5
CCCCC(=O)NC(NC(=O)CCCC)c1ccc(OCC(C)C)c(OC)c1,5.5,1.6%,0.9,-2.9,1.2,0.0
O=C1C2CCCCN2C(=O)N1CCCCN1CCN(c2cccc(Br)c2)CC1 (stereo unspecified),-4.9,2.9%,-1.1,-0.5,1.2,0.1
C=CCn1c(SCC(=O)Nc2ccc(C)cc2C)nnc1-c1cccnc1,5.2,0.2%,-1.9,-8.9,-8.8,-0.3
Cc1nc(CNS(=O)(=O)c2ccc3c(c2)CCCC3)cs1,0.7,1.0%,-1.6,8.0,4.7,-0.3
O=C(NCc1ccccn1)c1cc(S(=O)(=O)N2CCCCC2)ccc1Cl,3.8,1.0%,-0.5,-0.9,-10.0,0.1
Cc1ccc(NC(=O)COC(=O)C2CC3C=CC2C3)cc1S(=O)(=O)N1CCCCC1 (stereo unspecified),-10.1,9.8%,1.0,-2.8,22.0,0.0
COc1cc(C(=O)OCCNC(=O)c2cccnc2)cc(OC)c1OC,-1.0,0.5%,-2.9,-11.3,-5.0,0.9
Cc1csc2nc(O)c(C(=O)NC3CCCCC3C)c(=O)n12 (stereo unspecified),3.5,3.5%,0.2,0.3,3.2,-0.1
CCOc1cc(/C=N/NC(=O)c2ccccc2OCc2ccc(F)cc2)ccc1O,-27.2,2.0%,2.0,-2.2,75.8,2.2
Cc1ccc(NS(=O)(=O)c2ccc3c(c2)NC(=O)CO3)cc1C,-0.7,1.0%,7.6,4.2,8.8,1.4

# A draw from above in order of length of the SMILES, ascending.
SMILES,Six1-Eya2 inh,PINK1 modulator,D2 ag,D2 potentiator,TRPML1 blocker,TRPML1 agonist
Cc1ccc(NC(=O)C(=S)NCc2ccco2)cc1,-6.3,6.8%,-1.9,0.8,61.1,5.9
Cc1ccc(-c2nnc(SCC(=O)Nc3sc(C)c(C)c3C#N)n2C)cc1,7.4,3.9%,-2.3,-3.3,-14.9,0.2
Cc1ccc(NC(=O)COC(=O)C2CC3C=CC2C3)cc1S(=O)(=O)N1CCCCC1 (stereo unspecified),-10.1,9.8%,1.0,-2.8,22.0,0.0

# In another format: two of the compounds above.
# Below each SMILES: Six1-Eya2 inh, PINK1 modulator, D2 ag, D2 potentiator, TRPML1 blocker, TRPML1 agonist
COc1ccc(NC(=O)COC(=O)CC2CC3CCC2C3)c([N+](=O)[O-])c1 (stereo unspecified)
 : ?, 6.3%, 0.3, -4.9, 35.2, 0.7
CC(C)=CCN1CCN(Cc2cc(F)ccc2-n2nc(C)cc2C)CC1CCO (stereo unspecified)
 : 9.9, -0.4%, -3.8, -2.4, -10.1, 0.3
